From PubChem BioAssay
miR-21 FLuc – miR-21 reporter, rising signal; HeLa miR-21 FLuc reporter, luciferase, 48 h; Potency, µM (top dose mostly 38.3 µM), without a hit: top-dose reporter change, positive = more light; 340,000 tested, under 10 active; AID 2288; active = well fitted rising curve with a large enough effect; inconclusive = small, poorly fitted or top-dose-only effect; inactive = no such curve, though single readings can be large or run the other way;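 further: % of control where 0% means no effect; miR-21 action dims this reporter so a rising signal means less miR-21 action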
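Compounds were titrated across several concentrations (up to approximately 40 uM) and incubated 48 hours with HeLa miR-21-FLuc reporter cells (miR-21 target sequence downstream of FLuc, endogenous miR-21). Readout was firefly luciferase luminescence after lytic detection reagent.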
Rango complex inh – inhibitors of Rango-importin beta complex formation | AID 540263 | Potency, µM (top dose mostly 92.2 µM), without a hit: at the highest dose inhibition of complex formation | Rango CFP/YFP FRET sensor + importin beta, 45 min | Q14974 | actives 0.031% (n = 340,000); active = rising FRET ratio curve, often small or poorly fitted; inconclusive = mostly compound fluorescence or quenching in the first reads; inactive = flat curves in all reads;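 further: potency means the concentration at half of the fitted maximal effect; 0% = DMSO wells and 100% = buffer wells lacking importin beta; nearly all actives have a fitted effect of over 15% in size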
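Inhibition scored from the CFP 486 nm/YFP 530 nm FRET ratio 45 min after adding 0.125 microM importin beta to 50 nM Rango biosensor preincubated 5 min with compound (room temperature, PBS with DTT, Tween-20, BSA). No-importin wells as positive control.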
Rango release inh – prevents RanGTP from dissociating the Rango-importin beta complex; O95149+P62826; Biochemical FRET Rango-importin beta, RanGTP-induced dissociation; Potency, µM (series often up to 46.1 µM), for inactives: top-dose activity change, negative = inhibition; actives 0.071% (n = 340,000); AID 540253; active means falling FRET ratio curve, often poorly fitted, with flat reads before Ran was added; inconclusive means other falling curves, or compound fluorescence or quenching; inactive means flat or rising ratio curve;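 further: potency means the concentration at half of the fitted maximal effect; % of control where 0% means no effect; nearly all actives have a fitted effect of over 45% in size; -100% = wells without RanGTP and RCC1; the record marks most hits as doubtful in a second field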
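Quantitative HTS using a FRET biosensor: 0.1 uM Rango, 0.25 uM importin beta, 0.6 uM Ran, 2 mM GTP, 0.2 uM RCC1 final, PBS with DTT, Tween-20 and BSA. Post-read taken 45 min after Ran addition.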
GLA inh pH 4.5 – inhibitors of human alpha-galactosidase A at pH 4.5; P06280; purified enzyme, 4-MU-alpha-Gal fluorescence, pH 4.5; activity change, negative = inhibition, % at 105 µM; 230,000 tested, under 10 active; AID 1467; inconclusive = small, poorly fitted or top-dose-only inhibition, or a rising curve; inactive = flat fitted curve, though single readings scatter; no compound was filed as active;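 further: 0% = full activity with enzyme and -100% = basal without enzyme; dose as in the result columns while the protocol names 77 µM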
Target sequence (P06280 whole entry, looked up): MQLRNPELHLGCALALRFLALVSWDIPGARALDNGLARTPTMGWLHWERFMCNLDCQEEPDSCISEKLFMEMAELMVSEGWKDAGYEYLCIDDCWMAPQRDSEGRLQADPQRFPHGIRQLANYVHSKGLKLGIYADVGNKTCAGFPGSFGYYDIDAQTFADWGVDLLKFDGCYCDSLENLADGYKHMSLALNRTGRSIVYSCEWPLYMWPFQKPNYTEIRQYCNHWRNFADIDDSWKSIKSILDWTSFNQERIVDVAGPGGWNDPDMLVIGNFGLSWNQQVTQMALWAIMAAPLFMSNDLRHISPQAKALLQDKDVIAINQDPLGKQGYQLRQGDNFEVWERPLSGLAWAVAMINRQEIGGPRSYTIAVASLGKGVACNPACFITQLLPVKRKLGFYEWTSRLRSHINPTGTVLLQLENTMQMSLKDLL
The depositor's hits bear a star; ? = inconclusive; nt = no result given; & = joins results of further samples. A portion of the library; count on the stated rates, not on these rows.

nr	Structure	miR-21 FLuc	Rango complex inh	Rango release inh	GLA inh pH 4.5
1	Cc1cc(Cl)ccc1OCC(=O)OC(C)C(=O)NC(N)=O (configuration not stated)	-1%	-0.6%	1%	4
2	Cc1ccc(S(=O)(=O)N(C)C)cc1NC(=S)NC(C)CCCC(C)C (configuration not stated)	21%	3.4%	3%	-9
3	Cc1ccnc(NC(=S)NC(=O)/C=C/c2ccc(Cl)cc2)c1	-33%	5.5%	-12%	5
4	O=C1NC(=O)/C(=C\c2ccccc2Oc2ccc(F)c(F)c2)S1	-1%	0.4%	1%	-9
5	O=S(=O)(Nc1nc2ccccc2nc1OCC(F)(F)F)c1cccs1	0%	2.0%	-1%	-6
6	CCOC(=O)CSc1nsc(SCC(=O)OCC)c1C#N	-9%	0.5%	-9%	2
7	Cc1cccc(OCC2=N/C(=C\N(C)C)C(=O)O2)c1	-22%	-0.2%	-2%	7
8	Cc1cc([N+](=O)[O-])ccc1-c1ccc(/C=N/NC(=O)c2ccc(Br)o2)o1	-2%	?	?	nt
9	Nc1n[nH]c(N)c1N=Nc1ccccc1F	-24%	-0.8%	-3%	nt
10	CCOC(=O)NC1(Nc2ccc(C)cc2)Oc2ccccc2O1	-37%	1.6%	0%	-8
11	CC1CCN(CCCNC(=O)CCCNC(=O)Cn2cnc3sc4c(c3c2=O)CCCC4)CC1	0%	2.3%	-4%	8
12	CCC(=O)N1CCc2cc(S(=O)(=O)CCC(=O)Nc3ccc(C)cn3)ccc21	-1%	-3.4%	-10%	1
13	COc1ccc(-n2c(C)cc(C(=O)Cn3c(NCCO)nc4ccccc43)c2C)cc1	-7%	2.7%	1%	-19
14	CCOC(=O)c1c(NC(=O)c2ccccc2C(=O)O)sc2c1CCC2	6%	-2.8%	-17%	nt
15	CCOc1ccc(NC(=S)N2CCC(NC(=O)c3ccccc3C)CC2)cc1	2%	-0.6%	15%	nt
16	Cc1ccc(NC2CCCN(C(=O)c3ccc4[nH]ccc4c3)C2)cc1C (configuration not stated)	-5%	0.4%	-1%	nt
17	Cc1ccc(S(=O)(=O)NCCC(=O)NC(C)c2ccccc2)cc1 (configuration not stated)	0%	-0.6%	24%	nt
18	OC(CNCC1COc2ccccc2O1)COc1ccccc1F (configuration not stated)	-2%	5.2%	-10%	nt
19	CC(=O)Nc1nc(=S)n(-c2ccccc2)[nH]1	0%	2.2%	2%	-5
20	COc1ncnc2c1oc1nc(C(C)C)c3c(c12)CC(C)(C)OC3	1%	2.4%	12%	0
21	CC1CC(C)CN(C(=O)c2ccc(CNc3c(N4CCCC4)c(=O)c3=O)cc2)C1 (configuration not stated)	-3%	-0.2%	3%	0
22	CC(=O)c1ccccc1NC(=O)COC(=O)CSCC(=O)Nc1cc(C)on1	nt	0.5%	1%	nt
23	OCCC1CN(Cc2nc3ccccc3s2)CCN1C1CCCCC1 (configuration not stated)	6%	-0.3%	-1%	3
24	CC(=O)Nc1c(C)ccc(S(N)(=O)=O)c1C	-4%	-1.4%	-17%	1
25	CN1CCc2c(sc(/N=C/c3c[nH]c4ccccc34)c2C(N)=O)C1	-1%	?	?	-13
26	C=CCNC(=O)C(=O)Nc1ccc2c(c1)N(S(=O)(=O)c1cccs1)CCC2	nt	-1.9%	12%	nt
27	COc1ccc(/C(C)=C(\C#N)C(=O)OC(C)C)cc1OC	-2%	?	-12%	9
28	CN(Cc1ccccc1)S(=O)(=O)c1ccccc1[N+](=O)[O-]	-1%	-1.4%	-7%	-6
29	O=C(N/C(C(=O)N1CCOCC1)=C(\Sc1ncccn1)c1ccccc1)c1ccccc1	7%	-0.6%	0%	1
30	CS(=O)(=O)Nc1nnc(Cc2ccccc2)s1	-2%	-1.4%	56%	0
31	COc1cc(/C=C/C2=CC(C)(C)NC(=S)N2)cc(OC)c1OC	2%	3.1%	0%	-19
32	O=C1N/C(=N\N=C\c2ccc3ncccc3c2)SC1Cc1ccc(SC(F)F)cc1 (configuration not stated)	-11%	6.5%	11%	-4
33	Cc1c(O)nc(SCC(=O)Nc2ccc3c4c(cccc24)CC3)n(-c2ccc(F)cc2)c1=O	-2%	-1.3%	17%	0
34	O=C1[C@H]2[C@@H](C3CC3)N3C(=O)CN(CC4CC4)C(=O)[C@@]3(Cc3ccccc3)[C@H]2C(=O)N1c1ccccc1	nt	-1.5%	-1%	nt
35	COc1ccc(NC(=O)CCCC(=O)c2ccccc2)cc1	-11%	0.8%	21%	nt
36	COc1cc(/C=C2\SC(=S)N(NS(=O)(=O)c3ccc(C)cc3)C2=O)ccc1O	-1%	41µM*	?	-5
37	NC(=O)C1CCCN(CC(O)COCc2ccc(Cl)cc2)C1 (configuration not stated)	-12%	4.5%	0%	nt
38	CN(C)c1ccc(NC(=O)CN2CCc3ccccc3C2)cc1	-42%	-4.3%	3%	nt
39	O=C1OCC(CO)(CO)N=C1NNc1cc(Cl)ccc1Cl	-14%	3.5%	2%	0
40	O=C(Cn1cnc2c(nnn2Cc2ccccc2)c1=O)NCc1ccco1	-2%	-2.4%	-13%	-1
41	Cc1cccc(Nc2nc(NC(C)C)nc(Oc3ccc(=O)n(C)n3)n2)c1	-9%	-4.3%	7%	2
42	CCn1c(SCC(=O)Nc2ccc(OC)c(OC)c2)nnc1-c1ccco1	5%	-3.0%	29%	-5
43	O=C(NCCc1ccccc1)C(=O)NCCC1CCCCN1S(=O)(=O)c1cccs1 (configuration not stated)	nt	-2.3%	0%	nt
44	O=C(CCC(=O)N(Cc1ccco1)C(C(=O)NC1CCCC1)c1ccncc1)Nc1cccnc1 (configuration not stated)	-4%	0.4%	-19%	0
45	O=C1CCCN1CCCNc1nc2c(S(=O)(=O)c3ccccc3)nnn2c2ccc(Cl)cc12	5%	-4.0%	30%	nt
46	O=C(O)C1C2CCC(C2)C1C(=O)NCc1ccco1 (configuration not stated)	-2%	-1.5%	3%	-3
47	CC(=O)c1cc(-c2ccc(F)cc2)n(CCC(=O)Nc2cccnc2)c1C	2%	-0.9%	0%	1
48	CCOc1ccc(S(=O)(=O)N(CC(=O)NCc2cccnc2)c2ccc(F)cc2)cc1	14%	1.3%	-4%	nt
49	COc1ccc(NC(=O)CN2CCC(C(N)=O)(N3CCCCC3)CC2)cc1	1%	-0.9%	20%	2
50	S=C(Nc1ccccc1)Nc1nccs1	-27%	0.7%	-10%	0&4
51	O=C(CCN1C(=O)/C(=C/c2ccccc2)SC1=S)NC1CCS(=O)(=O)C1 (configuration not stated)	2%	-0.8%	?	nt
52	CCOc1ccc(N(CC(=O)NCCc2ccc(C)cc2)S(=O)(=O)c2c(C)noc2C)cc1	5%	2.3%	18%	nt
53	CNc1c([N+](=O)[O-])cnn1-c1ccccn1	4%	-0.7%	-2%	-2
54	N#C/C(=C(\O)c1cc(Cl)sc1Cl)c1nc2ccccc2[nH]1	2%	1.8%	-11%	nt
55	CCn1nccc1C(=O)Nc1ccc(Cl)cn1	-39%	-0.6%	4%	-8
56	COc1cc(C(=O)NCC2(N(C)C)CCCCC2)ccc1OCc1ccccc1	4%	1.2%	-14%	nt
57	CCc1nnc(NC(=O)CCC(=O)O)s1	1%	2.8%	-9%	-13
58	O=C(COc1ccccc1Br)Nc1ccc2c(c1)OCCCO2	-63%	-0.3%	-2%	nt
59	CCc1nnc(NC(=O)CSc2nnc(Cc3ccccc3)o2)s1	-6%	-0.4%	18%	-1
60	Cn1c(CCc2nc3ccccc3[nH]2)nnc1SCC#N	-3%	2.3%	-4%	-10

New compounds follow:
nr	Structure	miR-21 FLuc	Rango complex inh	Rango release inh	GLA inh pH 4.5
61	COc1ccccc1NC(=O)Nc1cnccn1	-16%	-0.1%	8%	-3
62	Clc1ccc(Cc2noc(CN3CCN(c4ccccc4)CC3)n2)c(Cl)c1	-3%	?	-15%	-7
63	N#CC(c1ccccc1)c1cnccn1 (configuration not stated)	nt	0.9%	0%	nt
64	Cc1cc(C)c(S(=O)(=O)Nc2ccc3c4c(cccc24)CC3)c(C)c1	25%	4.4%	-1%	-11
65	Cc1cc(C)cc(NC(=O)CCCn2nc(C)c3c(C)n(-c4ccccc4)nc3c2=O)c1	-1%&2%	2.4%	15%	nt
66	CCc1nc(Nc2cc(OC)ccc2OC)c2oc3ccccc3c2n1	-3%	-1.1%	-12%	nt
67	O=C1SCC(c2ccccc2)=NN1Cc1ccccc1	-4%	-0.3%	-13%	-2
68	CCOC(=O)c1ccccc1NC(=O)C1=COCCO1	nt	?	-15%	nt
69	O=C(COC(=O)c1ccc(O)cc1)Nc1ncc(Cl)cc1Cl	-1%	1.1%	7%	-1
70	O=c1c2ccccc2ncn1-c1ccc(Cl)c(Cl)c1	-9%	0.7%	-6%	-4
71	COCCN(C(=O)COC(=O)C1CC1)c1c(N)n(Cc2ccccc2)c(=O)[nH]c1=O	nt	-0.7%	3%	nt
72	CCCCCC(=O)NC(NC(=S)Nc1ccc(S(N)(=O)=O)cc1)C(Cl)(Cl)Cl (configuration not stated)	-3%	0.0%	10%	1
73	COC(=O)c1c(C)oc(C)c1S(=O)(=O)N(C)C1CCCCC1	0%	0.2%	1%	4
74	Cc1ccc(OC(C)c2nnc(N)s2)cc1Cl (configuration not stated)	5%	-3.3%	11%	-5
75	CCN(CC)S(=O)(=O)c1ccc(-c2nnc(SCC(=O)Nc3nnc(C)s3)n2CC)cc1	2%	-2.4%	4%	-1
76	Cc1cc(C)nc(N(C#N)CC(=O)N2CCC(C(N)=O)CC2)n1	-14%	?	1%	-1
77	COc1ccccc1N1CCN(CC(=O)Nc2ccc(Cl)c(C(F)(F)F)c2)CC1	0%	2.0%	2%	-10
78	Cc1ccc(C(C)n2cc(C(=O)NCc3cccnc3)nn2)cc1 (configuration not stated)	-6%	0.1%	4%	2
79	O=C1c2ccccc2C(=O)N1CCCCCCN1C(=O)c2ccccc2C1=O	nt	-4.7%	4%	nt
80	COc1ccccc1NC(=O)CNS(=O)(=O)c1ccccc1	-12%	-4.4%	9%	4

In another format: 2 of the compounds above
nr | miR-21 FLuc | Rango complex inh | Rango release inh | GLA inh pH 4.5 | structure
34 | nt | -1.5% | -1% | nt | O=C1[C@H]2[C@@H](C3CC3)N3C(=O)CN(CC4CC4)C(=O)[C@@]3(Cc3ccccc3)[C@H]2C(=O)N1c1ccccc1
35 | -11% | 0.8% | 21% | nt | COc1ccc(NC(=O)CCCC(=O)c2ccccc2)cc1

The list continues:
nr	Structure	miR-21 FLuc	Rango complex inh	Rango release inh	GLA inh pH 4.5
81	Cc1ccc(C)c(N(CC(=O)NC(C)(C)C)C(=O)CCC(=O)Nc2nccs2)c1	4%	-4.4%	2%	nt
82	CC(NC(=O)CCC(=O)c1cccs1)c1ccccc1 (configuration not stated)	nt	-0.6%	25%	nt
83	COc1cccc(CN2CC(C(=O)NCc3ccc(C)c(F)c3)CCC2=O)c1 (configuration not stated)	-8%	1.0%	-9%	nt
84	CCOc1cc(N(CC)CC)ccc1/C=C(/C#N)c1nc2ccccc2[nH]1	-50%	?	?	2
85	CCN(C(=O)c1ccnn1C)c1ccccc1	?	1.0%	1%	-1
86	COc1ccc(S(=O)(=O)N2CCOCC2)cc1NC(=O)CSc1nnc2c(n1)[nH]c1ccccc12	0%	0.1%	6%	-7
87	COc1ccc(OC)c(S(=O)(=O)N2CCC(C(=O)NCc3ccccn3)CC2)c1	0%	-1.3%	12%	nt
88	Cn1cc(C(=O)Nc2ccc3c(c2)CCC3)cn1	-70%	-0.3%	1%	9
89	CCC(=O)N1CCc2cc(S(=O)(=O)Nc3ccc4c(c3)OCCO4)ccc21	14%	-0.8%	5%	-4
90	CCOc1ccc(NC(=O)C(Cc2ccccc2)N2C(=O)c3cccc4cccc(c34)C2=O)cc1 (configuration not stated)	-2%	12%	2%	-2
91	COc1ccc(C(=O)OCC(=O)NCc2cccs2)c(OC)c1OC	nt	-0.3%	-8%	nt
92	CCOC(=O)CC(=O)c1[nH]c(C)c(C(=O)OCC)c1C	-33%	9.3%	6%	3
93	COc1ccc(C(C)=O)cc1COC(=O)CCCN1C(=O)c2ccccc2C1=O	-2%	0.2%	-8%	-20
94	C=CCOc1ccccc1CN1CCCC(CCC(=O)N(C)CCc2ccccn2)C1 (configuration not stated)	-5%	4.1%	-6%	2
95	c1ccc2cc3[nH]c(CN4CCOCC4)nc3cc2c1	-33%	-1.0%	-7%	-1
